High-throughput results as filed in PubChem BioAssay.
Menin-MLL FL inh – inhibitors of human menin-MLL interaction, wild-type MLL peptide; Fluorescence polarization, fluorescein-MLL peptide displacement from menin; FP activity change, % at 61.4 µM; 290,000 tested, under 10 active; AID 1766; inconclusive = falling polarisation curve, or a change in total fluorescence; inactive = total fluorescence flat and polarisation flat or rising; no compound was filed as active; the % refers to the polarisation; negative = inhibition;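 also: % of control where 0% means no effect; inhibitors lower the polarisation; unlabelled MLL peptide was the positive control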
gsp ag – activates gsp, the McCune-Albright syndrome mutation | gsp mutant cells, cAMP HTRF, 30 min; control for the full effect not named in the record | Potency, µM (highest dose often 76.9 µM), for the others: top-dose activation (cAMP increase), actives largely listed as activators | actives 0.13% (n = 340,000) | AID 624287; active = well fitted activation curve with a large enough effect; inconclusive = small, poorly fitted or top-dose-only effect, or another doubt; inactive = no such curve, though single readings can be large or run the other way; cell line not stated here;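 also: phosphodiesterase inhibitor Ro 20-1724 added with compounds to block cAMP breakdown; potency is read from the fitted curve at half-maximal effect; nearly all actives have a fitted effect of over 60% in size; about a fifth of the inactives were tested at one dose only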
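Cells stably selected in G418 were plated at 2000/well, grown 16-24 hr, then given compounds in DMSO with the PDE inhibitor […] (300 uM solution added) for 30 min at 37C; cAMP was read by HTRF.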
Sfp inh – inhibitors of Bacillus subtilis Sfp phosphopantetheinyl transferase. Q9F4F7. Biochemical Sfp PPTase activity, qHTS. Potency, µM, without a hit: max response, negative = inhibition, hits mostly inhibitors. actives 3.5% (n = 310,000). AID 1490; active = well fitted inhibition curve with a large enough effect; inconclusive = small, poorly fitted or top-dose-only effect, or another doubt; inactive = no such curve, though single readings can be large or run the other way;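 also: the enzyme is Sfp with the accession as filed and its product quenches rhodamine fluorescence; potency is read from the fitted curve at half-maximal effect; 0% = enzyme reaction without inhibitor and -100% = no enzyme wells; top concentration of the series not given in the record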
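Buffer: 50 mM Hepes-Na pH 7.6, 10 mM MgCl2, 0.01% Nonidet P-40, 0.01% BSA. Enzyme 15 nM, pre-exposed to compound 15 min; substrates then added and fluorescence change tracked over 30 min.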
D2 potentiator – human D2 receptor positive allosteric modulation; actives 0.23% (n = 360,000); DiscoveRx D2 beta-arrestin cells, luminescence, 90 min; 100% = 57 uM dopamine signal; potentiation, % (test concentration not listed); P14416; active = potentiation of 50% or more; inconclusive = 30% to 50%; inactive = 30% or less;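 also: compound concentration not given in the record; tested on top of an EC20 dose of dopamine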
Target sequence (P14416 whole entry, looked up): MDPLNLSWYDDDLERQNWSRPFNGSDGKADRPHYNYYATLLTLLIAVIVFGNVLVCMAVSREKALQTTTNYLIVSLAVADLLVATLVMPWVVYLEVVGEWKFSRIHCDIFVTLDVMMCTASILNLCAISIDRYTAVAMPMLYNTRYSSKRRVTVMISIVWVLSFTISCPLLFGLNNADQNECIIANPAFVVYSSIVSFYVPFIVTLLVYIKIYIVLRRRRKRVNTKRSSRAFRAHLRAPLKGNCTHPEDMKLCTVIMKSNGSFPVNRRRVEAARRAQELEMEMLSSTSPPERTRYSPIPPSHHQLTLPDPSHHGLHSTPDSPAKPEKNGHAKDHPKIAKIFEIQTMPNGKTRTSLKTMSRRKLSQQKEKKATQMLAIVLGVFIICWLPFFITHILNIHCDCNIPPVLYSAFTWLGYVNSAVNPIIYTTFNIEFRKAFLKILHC
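D2 cells co-treated with compound plus 50 nM dopamine (EC20) for 90 min at 37 deg C to detect potentiation. Beta-arrestin recruitment was read as enzyme-fragment luminescence after 1 h at ambient temperature. Full response was set by 57 uM dopamine.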
TRPV1 PAM – potentiators of human vanilloid receptor 1 (TRPV1); AID 540277; potentiation, % at 8.33 µM; Q8NER1; TRPV1-expressing cells, Fluo-8 calcium influx, capsaicin EC20 potentiation; host cell line not named in the record; control for the full effect not named in the record; actives 0.02% (n = 320,000); active means potentiation above 80%; inconclusive means 30% to 80%; inactive means below 30%; also: 0% is about no effect
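Cells expressing TRPV1 were dye-loaded with Fluo-8 and read kinetically: 10 s baseline, 3 min after compound (agonist portion), then 2 min after EC20 capsaicin (allosteric enhancer portion). Calcium-bound dye fluorescence at 480/520 nm.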
ClpP mod – qHTS Assay for Activators of ClpP; ATP-dependent Clp protease proteolytic subunit (Bacillus subtilis (strain 168)), P80244; purified B. subtilis ClpP, FRET peptide cleavage, 20 min; Potency, µM (doses to about 57.5 µM), for the others: at the top dose activity change, negative = active; actives 1.9% (n = 340,000); active = well fitted falling curve with a large enough effect; inconclusive = small, poorly fitted or top-dose-only effect; inactive = no such curve, though single readings can be large or run the other way; also: potency is read from the fitted curve at half-maximal effect; the source files actives as falling curves though it sought activators and does not explain the sign; nearly all actives have a fitted effect of over 65% in size; many hits overshoot -100%
Target sequence (P80244 whole entry, looked up): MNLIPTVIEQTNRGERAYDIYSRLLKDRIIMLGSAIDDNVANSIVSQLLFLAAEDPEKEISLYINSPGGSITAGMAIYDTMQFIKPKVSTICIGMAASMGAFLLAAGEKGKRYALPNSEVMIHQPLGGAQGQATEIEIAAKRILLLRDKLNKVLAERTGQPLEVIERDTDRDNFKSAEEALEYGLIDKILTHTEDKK
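ClpP 10 microg/mL final, pH 8 Tris/KCl buffer with BSA, glycerol, Tween-20; compound pinned in; FRET-FV substrate; RT 20 min; Ex320/Em430; ΔFRET vs ADEP 5.8 microM, DMSO, no enzyme.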
gsp antagonist – gsp mutant antagonism; gsp-mutant cells, cAMP HTRF, 30 min; control for the full effect not named in the record; Potency, µM (series often up to 76.9 µM), inactives show at the highest dose activity change, negative = inhibition, actives largely listed as inhibitors; actives 0.4% (n = 340,000); active = falling curve of any shape with a large fitted effect; inconclusive = falling curve, mostly with a smaller effect; inactive = flat or rising curve; cell line not stated here;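 also: intracellular cAMP measured with PDE inhibitor Ro 20-1724 present during compound exposure; potency is read from the fitted curve at half-maximal effect; % is scaled to controls: 0 for no effect and ±100 for the full control effect; nearly all actives have a fitted effect of over 65% in size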
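G418-selected cells were plated in DMEM/10% FBS for 16-24 h at 37C, then treated with compounds plus the PDE inhibitor […] (300 uM solution added) for 30 min at 37C. Intracellular cAMP was measured by HTRF after 30 min lysis at room temperature.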
* = called active by the depositor; ? = inconclusive; . = no result given; & = joins results of further samples; [ ] = remark or other dose.

SMILES | Menin-MLL FL inh | gsp ag | Sfp inh | D2 potentiator | TRPV1 PAM | ClpP mod | gsp antagonist
O=C(c1ccoc1)N1CCN(c2cc(-c3ccncc3)nc3cc(-c4cccc(Cl)c4)nn23)CC1 | . | ? | . | 4.9 | . | 4.3% | .
O=C(O)CCc1n[nH]c(=S)[nH]c1=O | 5.3 | -19.6% | 56.2µM* | -10.9 | 4.7 | -1.2% | 1.2%
CC1CCCC(C)N1/N=C/c1ccc(Cl)cc1 (stereo not given) | -0.9 | -0.9% | -7.6% | -7.0 | -2.1 | 0.8% | 16.5%
Brc1ccc(Nc2ncnc3[nH]ncc23)cc1 | 3.4 | -7.2% | 3.3% | -22.5 | -2.2 | -6.3% | 4.4%
CN(c1ccccc1C(=O)Nc1ccc2c(c1)n(C)c(=O)n2C)S(C)(=O)=O | -1.1 | -22.0% | 14.4% | 1.5 | 0.2 | -2.4% | 5.3%
CCc1ccccc1NC(=O)Cc1cn(C)c2ccccc12 | -1.7 | -67.3%[inhibitor] | -8.0% | 5.7 | -3.1 | -1.2%&-3.3% | 10.6%
O=C(Nc1c2c(nn1-c1ccc(Cl)cc1)CS(=O)(=O)C2)c1ccc2c(c1)OCO2 | 10.0 | -15.0% | 14.3% | -2.8 | -5.6 | -4.7% | -14.2%
CC(=O)NCCC(=O)Nc1ccc(F)cc1C | -1.1 | -28.1% | 14.1% | -6.9 | 16.8 | 2.2% | 7.3%
N#Cc1ccc(Cl)cc1NC(=O)COC(=O)c1ccc(S(=O)(=O)N2CCCC2)cc1 | 0.0 | -27.3% | 15.1% | 15.3 | 5.6 | 4.2% | 6.3%
O=C(Nc1ccccn1)NC1CCS(=O)(=O)C1 (stereo not given) | 3.6 | ? | 8.8% | 0.2 | -7.1 | -3.6% | 7.4%
CCOc1ncccc1C(=O)N1CCCSC1=Nc1ccc(C(C)=O)cc1 | 2.5 | 5.4% | 10.0% | -3.4 | 9.9 | -5.3% | -0.2%
COc1ccccc1CC(=O)N1CCN(c2ccc(F)cc2)CC1 | . | 2.2%[15.4 µM] | . | 0.3 | . | 1.0% | 2.1%
COc1ccc(C(CCNC(C)c2ccccc2)C(C)C)cc1 (stereo not given) | -0.2 | 1.7%[15.4 µM] | -8.6% | -17.9 | -21.2 | . | 9.0%
O=C(CCNC(=O)c1ccc([N+](=O)[O-])cc1)Nc1ccc(N2CCOCC2)cc1N1CCOCC1 | -6.4 | -2.5% | 13.9% | -1.6 | 3.6 | -0.6% | 0.2%
CCOc1ccccc1OCC(=O)Nc1cc(S(=O)(=O)N2CCCCC2)ccc1OC | . | -16.4%[15.4 µM] | . | -1.5 | -2.2 | -5.8% | ?
CN(C(=O)c1cc2c(=O)n3ccccc3nc2n1C)C1CCCCC1 | . | ? | 7.2% | -9.4 | 9.2 | 9.0% | 17.6%
Cc1ccc(CNC(=O)c2nnn(-c3cccc(C)c3)c2N)cc1 | 3.7 | 12.1% | 9.5% | -7.0 | . | 1.3% | 4.3%
Cn1ccnc1Sc1ccc(C=O)cc1[N+](=O)[O-] | -2.7 | 21.1%[15.4 µM] | -4.7% | -6.2 | -4.3 | . | -2.9%
COC(=O)NNC(=O)COc1ccc(Br)c(C)c1 | 3.4 | 0.0% | 22.4% | -3.9 | 4.4 | -0.5% | 2.0%
O=C(CSc1c(Cl)cccc1Cl)N1CCC(c2nc3ccccc3s2)CC1 | -1.2 | -10.0% | -3.8% | -2.6 | 3.3 | 0.5% | ?

Profiles as entered above. Screens in order: Menin-MLL FL inh | gsp ag | Sfp inh | D2 potentiator | TRPV1 PAM | ClpP mod | gsp antagonist
Record of `O=C(Nc1c2c(nn1-c1ccc(Cl)cc1)CS(=O)(=O)C2)c1ccc2c(c1)OCO2` → 10.0 | -15.0% | 14.3% | -2.8 | -5.6 | -4.7% | -14.2%
Record of `Cn1ccnc1Sc1ccc(C=O)cc1[N+](=O)[O-]` → -2.7 | 21.1%[15.4 µM] | -4.7% | -6.2 | -4.3 | . | -2.9%
Record of `O=C(O)CCc1n[nH]c(=S)[nH]c1=O` → 5.3 | -19.6% | 56.2µM* | -10.9 | 4.7 | -1.2% | 1.2%
Record of `O=C(Nc1ccccn1)NC1CCS(=O)(=O)C1` (stereo not given) → 3.6 | ? | 8.8% | 0.2 | -7.1 | -3.6% | 7.4%

The results go on.
SMILES | Menin-MLL FL inh | gsp ag | Sfp inh | D2 potentiator | TRPV1 PAM | ClpP mod | gsp antagonist
O=[N+]([O-])c1ccc(S(=O)(=O)NCC2COc3ccccc3O2)cc1 (stereo not given) | -1.6 | -7.2% | 4.8% | -0.1 | -7.8 | -1.6% | 2.0%
CN(C)S(=O)(=O)c1ccc(C(=O)OCC(=O)NC(=O)NCc2ccccc2)cc1 | 0.9 | -3.7% | 3.8% | 5.6 | -4.4 | 0.0% | -15.0%
CCc1c(O)nc(SCC(=O)Nc2ccc(Br)cc2)n(-c2ccc(C)cc2)c1=O | 15.4 | -18.8% | 9.6% | -3.2 | 2.6 | 0.7% | -8.9%
Cc1csc(SCC(=O)NCCc2ccc(Cl)cc2Cl)n1 | -1.9 | 3.9% | 15.4% | -9.3 | 13.4 | 1.3% | -1.2%
COc1ccc(CNC(=O)C2CCN(S(C)(=O)=O)CC2)cc1 | -0.1 | -7.2%[15.4 µM] | 8.3% | 1.2 | -6.2 | . | 7.4%
COc1ccccc1C(=O)Nc1ccc2[nH]ncc2c1 | 0.5 | -41.3%[inhibitor] | 0.7% | -3.0 | 4.7 | . | -4.6%
CC1=CC(C)(C)N(C(=O)CSc2nnc(N)s2)c2c(C)cc(C)cc21 | 4.5 | -5.2% | 19.1% | -4.9 | -16.2 | -0.4% | 0.1%
Cc1cc(C)c[n+](C[n+]2cc(C)cc(C)c2)c1 | 0.5 | ? | 6.8% | 1.2 | -4.1 | . | 7.0%
Cn1c(=O)c2c(nc(CN3CCc4ccccc4C3)n2Cc2ccc(F)cc2)n(C)c1=O | . | -50.5%[inhibitor] | . | -20.7 | . | -6.4% | 29.3%
CC1(CN2CCCC2)CCC(NC(=O)C(c2ccccc2)c2ccccc2)C(C)(C)O1 (stereo not given) | . | -21.3% | . | -20.7 | . | -0.3% | .
CCOC(=O)N1CCN(C(=O)c2cc(OC)c(OC)c(OC)c2)CC1 | 2.0 | ? | 6.1% | -1.2 | -2.0 | -1.4% | 2.3%
Cn1nc(C(F)(F)F)c(-c2ccccc2)c1NC(=O)c1cccnc1 | -0.2 | ? | 20.1% | -16.7 | 2.8 | -2.1% | 1.0%
O=c1c2nnn(-c3ccc(Cl)cc3)c2ncn1Cc1ccccn1 | -1.3 | 11.8%[15.4 µM] | 1.5% | -9.1 | -20.1 | -1.1% | -6.3%
Cc1ccccc1OCCOCCN1CCCCCC1 | 1.5 | -2.1% | 12.1% | -20.3 | 3.4 | . | -5.9%
COc1ccc(/C(=N\O)c2ncc(C(F)(F)F)cc2Cl)cc1 | -0.2 | -20.0% | 11.5% | 16.4 | 13.1 | 1.2% | -4.1%
C[C@@H]1O[C@@H](OC[C@@H]2O[C@H](Oc3c(-c4ccc(O)cc4)oc4cc(O)cc(O)c4c3=O)[C@@H](O)[C@H](O)[C@H]2O)[C@H](O)[C@H](O)[C@H]1O | . | . | . | -45.7 | . | 1.4% | 3.4%
Cc1cccc(Nc2nc(N3CCCC3)nc(N3CCCC3)n2)c1 | 0.1 | 2.2% | -8.3% | -14.2 | -10.9 | -1.2% | 2.0%
CNS(=O)(=O)c1cc(NC(=O)CCNC(=O)c2ccco2)ccc1C | -6.3 | -16.4% | 1.5% | -3.0 | -2.9 | . | 4.1%
CCc1ccc(OCC(=O)NNC(=O)c2ccc(NC(=O)C3CC3)cc2)cc1 | . | 11.5% | -3.9% | -14.3 | -40.3 | 1.5% | -12.7%
Cc1ccc(C(=O)O)cc1NC(=S)NCCc1ccccc1 | -6.7 | ? | 0.2% | 0.3 | -0.9 | 1.8% | 6.6%

(continued)
SMILES | Menin-MLL FL inh | gsp ag | Sfp inh | D2 potentiator | TRPV1 PAM | ClpP mod | gsp antagonist
Cn1c(=O)c2c(nc(NN=C3CCCC3)n2C)n(C)c1=O | 6.1 | 55.7% | 22.4µM* | 10.6 | -0.7 | -5.2% | ?
CC1CCN(S(=O)(=O)c2cc(C(=O)N3CCN(c4ncccn4)CC3)ccc2Br)CC1 | -0.7 | -7.9% | 1.9% | -14.4 | 0.0 | -11.7% | -18.0%
Cc1ccc(-c2nn(-c3ccc(F)cc3)cc2C(=O)NCC(c2cccs2)N2CCOCC2)cc1 (stereo not given) | . | 12.1%[15.4 µM] | . | 2.9 | -19.9 | . | -17.3%
O=C(COC(=O)c1cc2ccccc2oc1=O)Nc1ccc(F)cc1F | 5.7 | 8.0% | -5.0% | -4.0 | . | -26.1% | 2.1%
Cc1ccc(NCC(=O)N/N=C/c2ccc(-c3cccc(C(F)(F)F)c3)o2)cc1 | 0.1 | 18.3% | 9.3% | -13.7 | -0.5 | -6.1% | -21.8%
CCCC(=O)c1ccc(N2CCN(C(=O)OCC)CC2)c(F)c1 | 7.6 | -3.7% | 8.4% | -17.3 | 0.2 | -0.3% | -18.6%
COc1cc(-c2nc(CCNC(=O)c3ccco3)cs2)cc(OC)c1OC | . | 3.0% | 6.7% | 8.6 | 4.3 | 3.9% | 4.5%
Cc1cc(S(=O)(=O)N2CCOCC2)ccc1OCC(=O)NCCN1CCOCC1 | 1.3 | -9.5%[15.4 µM] | 13.6% | -5.5 | 0.7 | -110.3% | 13.4%
Cc1ccc(C(NC(=O)c2ccccc2)C(Cl)Cl)cc1 (stereo not given) | 3.8 | -3.0%[15.4 µM] | 0.1% | -2.1 | -10.7 | 0.7% | -31.4%
CCN1CCN(Cc2nc3c(c(=O)[nH]c(=O)n3C)n2Cc2ccccc2Cl)CC1 | 1.0 | -55.8%[inhibitor] | 20.2% | -7.2 | -3.2 | -2.2% | 8.6%
CSC1=C(C#N)C(c2ccccc2Cl)C(C(=O)c2cccs2)C(O)(C(F)(F)F)N1 (stereo not given) | 5.6 | 5.0%[15.4 µM] | 23.5% | -18.5 | -3.9 | -0.6% | -10.5%
COc1ccc(S(=O)(=O)Nc2ccc3c(c2)C(=O)N([C@H](C)CO)C[C@H](C)[C@@H](CN(C)C(=O)NC(C)C)O3)cc1 | . | 5.9% | . | -6.9 | . | -1.5% | 2.0%
